TRPML1 inh: qHTS for Inhibitors of the Human Mucolipin Transient Receptor Potential 1 (TRPML1); Mucolipin-1 (Homo sapiens), Q9GZU1; TRPML1-inducible cells, Ca2+ dye fluorescence, FDSS; active compounds read low; inhibition of EC80 agonist-evoked calcium signal; activity change, negative = inhibition, % (concentration not given with the values); 390,000 compounds, 0.02% hits; AID 624415, 2012; in the data active means activity change below about -50%; inconclusive means about -30% to -50%; inactive means above about -30%;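 also: stimulus is agonist 54-4 at its EC80 concentration; % is scaled to controls: 0 for no effect and ±100 for the full control effect; the text of the record puts the active cut at -80%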
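TRPML1-DL cells, Tet-induced overnight (~16 h, 37 °C) at 1,500 cells/well, were loaded with Ca8 no-wash dye plus quencher for 45-90 min at room temperature. Compounds were pinned during FDSS kinetic reading; agonist 54-4 at EC80 (4 uM final) then added.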
Six1-Eya2 blk: qHTS Assay for Inhibitors of the Six1/Eya2 Interaction; AlphaScreen GST-Six1/His-Eya2 binding, biochemical; active compounds read low; control for the full effect not named in the record; activity change, % (concentration not given with the values); 360,000 compounds, 0.56% hits; in the data active = activity change below about -65%; inconclusive = about -30% to -65%; inactive = above about -30%; also: % is scaled to controls: 0 for no effect and ±100 for the full control effect
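AlphaScreen with GST-Six1 and His-Eya2 (5X mix: 250 nM and 500 nM), glutathione donor and nickel acceptor beads; buffer 50 mM Tris pH 8.0, 300 mM NaCl, 1 mM TCEP; 1 h at 37 C in the dark.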
TRPV1 potentiator: HTS Assay for Compounds that Act as Potentiators of the Vanilloid Receptor 1; Transient receptor potential cation channel subfamily V member 1 (Homo sapiens), Q8NER1; TRPV1-expressing cells, Fluo-8 calcium influx, capsaicin EC20 potentiation; host cell line not named in the record; control for the full effect not named in the record; potentiation, % at 8.33 µM; 320,000 compounds, 0.02% hits; active means potentiation above 80%; inconclusive means 30% to 80%; inactive means below 30%; also: 0% is about no effect
Target sequence (Q8NER1 whole entry, looked up): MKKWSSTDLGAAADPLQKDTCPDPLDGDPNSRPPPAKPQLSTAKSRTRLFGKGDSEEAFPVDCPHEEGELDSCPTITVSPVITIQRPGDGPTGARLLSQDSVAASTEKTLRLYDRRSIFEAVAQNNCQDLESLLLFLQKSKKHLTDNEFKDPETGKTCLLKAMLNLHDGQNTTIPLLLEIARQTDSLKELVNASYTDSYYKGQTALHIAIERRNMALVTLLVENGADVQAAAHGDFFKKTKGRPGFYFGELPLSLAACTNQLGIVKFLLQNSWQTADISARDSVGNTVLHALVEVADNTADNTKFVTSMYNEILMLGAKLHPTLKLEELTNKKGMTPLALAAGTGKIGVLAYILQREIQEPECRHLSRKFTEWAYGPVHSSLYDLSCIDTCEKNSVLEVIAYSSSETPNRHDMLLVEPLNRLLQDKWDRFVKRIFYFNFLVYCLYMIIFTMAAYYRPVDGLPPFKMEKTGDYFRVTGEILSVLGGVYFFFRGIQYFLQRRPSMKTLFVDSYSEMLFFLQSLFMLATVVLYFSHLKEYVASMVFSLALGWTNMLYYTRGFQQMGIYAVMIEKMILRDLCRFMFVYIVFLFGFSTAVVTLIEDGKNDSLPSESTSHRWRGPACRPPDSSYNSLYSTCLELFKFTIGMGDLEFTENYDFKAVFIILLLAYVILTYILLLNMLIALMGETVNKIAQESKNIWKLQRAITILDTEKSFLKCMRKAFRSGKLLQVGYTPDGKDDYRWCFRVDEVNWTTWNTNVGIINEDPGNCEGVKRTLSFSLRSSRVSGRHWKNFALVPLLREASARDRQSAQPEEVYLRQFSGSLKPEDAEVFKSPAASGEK
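Fluo-8 calcium influx in TRPV1-expressing cells, kinetic read (ex 480/em 520 nm). Compound added and read 3 min for agonist activity, followed by capsaicin at EC20 final and 2 min further read for enhancement.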
D2 PAM: Beta-Arrestin HTS for Positive Allosteric Modulators of the Human D2 Dopamine Receptor: Potentiators. D(2) dopamine receptor (Homo sapiens), P14416. DiscoveRx D2 beta-arrestin cells, luminescence, 90 min; 100% = 57 uM dopamine signal. potentiation, % (no concentration beside the values). 360,000 compounds, 0.23% hits. AID 624464, 2012; active = potentiation of 50% or more; inconclusive = 30% to 50%; inactive = 30% or less;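 also: compound concentration not given in the record; tested on top of an EC20 dose of dopamine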
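PathHunter beta-arrestin assay in DiscoveRx D2 cells. Compounds were added with an EC20 of dopamine (50 nM final) for 90 min at 37 deg C. Luminescence was read 1 h after detection reagent, with 57 uM dopamine as the EC100 control.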
TRPML1 agonist: qHTS for Agonists of the Human Mucolipin Transient Receptor Potential 1 (TRPML1); activation, % (test concentration not listed); TRPML1-expressing cells, Ca2+ dye fluorescence, FDSS; host cell line not named in the record; reference of the full effect not given here; 410,000 compounds, 0.12% hits; Mucolipin-1 (Homo sapiens), Q9GZU1; in the data active = activation above about 50%; inconclusive = about 30% to 50%; inactive = below about 30%; also: 0% is about no effect; the text of the record puts the active cut at 80%
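Calcium fluorescence on an FDSS kinetic reader gave the read-out. Tet-induced TRPML1-DL cells were plated overnight, dye-loaded (Ca8 with quencher, 45-90 min, room temperature, dark), then read 110 s after compound addition, and again 110 s after 4uM final 54-4 (EC80).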
CtBP-E1A blk: qHTS Assay for Inhibitors of the CtBP/E1A Interaction; CtBP / adenovirus E1A interaction (AlphaScreen); AlphaScreen GST-E1A/His-CtBP binding, 1536-well; active compounds read low; control for the full effect not named in the record; activity change, % (concentration not given with the values); 340,000 compounds, 0.49% hits; in the data active means activity change below about -65%; inconclusive means about -30% to -65%; inactive means above about -30%; also: % is scaled to controls: 0 for no effect and ±100 for the full control effect
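GST-E1A and His-tagged CtBP (125 nM each as 5X stock) were preincubated with pin-transferred compound for 2 h at 37 °C in the dark, then glutathione donor and nickel acceptor beads were added for 1 h before AlphaScreen reading.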
Active calls of the source: *; ? = inconclusive; . = not tested or not shown; & = joins results of further samples.

SMILES	TRPML1 inh	Six1-Eya2 blk	TRPV1 potentiator	D2 PAM	TRPML1 agonist	CtBP-E1A blk
Oc1cccc(NC(=S)N=Nc2c(O)[nH]c3ccccc23)c1	-12	?	5	-11	-0.1	-68*
CS(=O)(=O)N(CC(=O)Nc1ccccc1C(=O)N1CCOCC1)c1ccc(Cl)cc1	-5	6	?	-13	-0.1	.
COc1ccccc1CNC(=O)CN1CCN(Cc2ccc(Cl)cc2)C1=O	2	2	.	-9	-0.8	11
CCc1ccc(OCC(=O)Nc2ccc(S(=O)(=O)Nc3ccccn3)cc2)cc1	2	10	3	4	1.5	-2
COc1cc(OC)c2cc(C(=O)N/N=C/c3cccc(OC)c3O)[nH]c2c1	1	?	7	20	-0.2	-76*
CCCN1CCN(C(=S)Nc2sc(CC)cc2C(=O)OC)CC1	15	-21	18	11	2.8	.
COc1ccc(CCNC(=O)Cc2cccs2)cc1	-2	8	-5	-14	-0.3	4
Cc1cc(C)nc(SCC(=O)Nc2cc(C)on2)n1	5	3	11	-1	0.3	2
CCCCNC(=S)Nc1ccc([N+](=O)[O-])cc1	11	-2	-7	-18	-0.4	-3
CC(=O)NCCn1c(SCc2ccc(C)cc2C)nc2ccccc2c1=O	27	-1	-4	2	-0.2	-3
CN(C)C(=S)c1ccccc1	-6	0	-6	-2	-0.6	3
CC(=O)NCCNc1nc(NC(C)C)nc2ccsc12	.	-4	.	-6	-0.5	5
CCCn1c(=O)c2c(C(F)(F)F)cc(-c3ccco3)nc2n(CCC)c1=O	25	-6	10	-9	1.5	-4
Cc1ccc(C)c(OCCn2c(CCNC(=O)C3CCCCC3)nc3ccccc32)c1	-10	.	-22	.	1.1	.
CN(C)S(=O)(=O)c1cccc(C(=O)OCC(=O)N2c3ccccc3NC(=O)C2(C)C)c1	-11	-5	-10	-16	-0.1	3
CNC(=O)c1csc(-c2ccc(Cl)cc2)n1	-5	3	-21	-8	2.4	-11
CCOC(=O)N1CCN(C(=O)c2cn(C)c3ccc(S(=O)(=O)N4CCCC4)cc3c2=O)CC1	-9	0	-5	5	0.4	11
Cc1nn(Cc2ccccc2)c(C)c1NC(=O)CSc1nc2c(c(C(F)(F)F)n1)CCc1ccccc1-2	2	?	7	4	-0.4	-29
CCOc1cc(/C=C2/C(=O)NN(c3cccc(Cl)c3)C2=O)ccc1O	15	13	-38	-4	0.1	10
O=C(NC1CCCCC1)C1CCC(CNS(=O)(=O)c2cccc3nsnc23)CC1 (stereo not given)	-2	-5	4	-5	-1.0	2
CN(C(=O)c1ccc(NC(=O)Cc2ccc(NC(=O)C3CCN(C(=O)C4CC4)CC3)cc2)cc1)C1CC1	?	-1	8	-1	-0.1	2
COc1cccc(NC(=O)C(c2ccccc2)N2CCCCC2)c1 (stereo not given)	30	0	0	-23	2.6	0
CC(C)(C)NC(=O)C1CCN(C(=O)c2ccc(-c3ccccc3)cc2)CC1	6	-2	-8	-6	0.4	0
CS(=O)(=O)N(CC(=O)NCc1ccccc1)Cc1ccc(Cl)cc1	7	2	-4	2	-0.1	2
CCCN(CC(=O)Nc1ccccc1OC)C(=O)CSc1ccc(Br)cc1C	3	-2	-2	-4	-0.6	0
O=C(CN1CCN(c2ccccn2)CC1)Nc1ccccc1F	13	3	-13	6	0.7	-1
O=C(c1ccco1)N1CCN(S(=O)(=O)c2ccc(S(=O)(=O)NC3CC3)cc2)CC1	2	0	9	-18	-0.1	7
COc1cccc(-c2cc(C(=O)N3CCCCCC3)no2)c1	58	-1	12	-7	0.9	-7
CC(=O)N1N=C(c2ccccc2)CC1c1ccc2c(c1)OCO2 (stereo not given)	-15	4	-4	-12	0.9	.
COc1cc(OC)c(CN2CCCCCCC2)cc1Br	14	4	8	-18	0.8	3
C=CCOc1ccccc1/C=N/n1nnnc1N	19	0	-10	-32	1.2	2
CCCCN(C=O)c1c(CC)nc2ccc(C(=O)NCc3ccc4c(c3)OCO4)cn12	.	1	.	1	-0.9	1
CCN1CCN(CC(=O)c2c(C)n(C)c3ccc(OC)cc23)CC1	6	22	-13	-26	-0.7	0
CCCCN(C)CCNC(=O)CSCc1ccc(C)cc1	.	1	-1	-34	.	9
CCN(CC)S(=O)(=O)c1ccc(NC(=O)c2ccccc2N(C)S(C)(=O)=O)cc1	-21	0	1	1	-0.7	1
CCOC(=O)C1(c2ccccc2)SC(C(=O)OCC)(c2ccccc2)S1 (stereo not given)	56	3	.	-21	0.4	5
COC(=O)c1sccc1NC(=O)c1ccc(C)cc1	-14	8	-27	1	0.8	3
CC(NC(=O)c1ccccc1F)c1nnc(SCC(=O)NC2CCCC2)n1C (stereo not given)	-6	-4	10	-15	1.1	-2
O=C(COC(=O)c1cccc(C(=O)OCC(=O)NCc2ccc(F)cc2)n1)NCc1ccc(F)cc1	19	0	4	-2	1.6	3
COC(=O)c1sccc1NC(=O)c1cccc(Cl)c1	34	29	.	-9	2.9	30
Cc1ccc(C)n1NC(=O)c1ccco1	-10	5	0	-6	-0.6	-11
CCOC(=O)C1=C(C)NC(C)=C(C(=O)OCC)C1C(=O)OCC(=O)NCc1ccccc1OC	18	-5	.	-4	0.5	-5
CC(C)Cc1nc(N2CCN(C(=O)c3ccco3)CC2)c(C#N)c2c1CCC2	13	-10	-3	-21	0.2	-5
COc1cccc(NC2=Nc3cccc4cccc2c34)c1	-16	-29	-5	-10	0.0	?
CSc1nc(N(C)NC(=O)c2cccc(C)c2)c2ccccc2n1	24	0	28	10	-0.5	17
Cc1cc(C)n(-c2ccc(C(=O)Nc3ccc(C)c(S(=O)(=O)N(C)C)c3)cc2)n1	-28	?	2	2	0.1	?
COc1cc(N)c(Cl)cc1NC(=O)c1ccccc1	-4	7	27	-8	0.3	-10
COc1ccccc1C(=O)OCC(=O)Nc1cc(S(=O)(=O)N2CCOCC2)ccc1N1CCCC1	-3	-3	1	8	1.7	.
CC(C)N(C(=S)NCc1ccccc1)C(C)C	12	-1	5	-8	0.4	.
CC(C)CC(OC(=O)c1nsc(Cl)c1Cl)C(=O)NCc1cccs1 (stereo not given)	-4	3	-15	9	0.0	-1
O=C(Cn1cncn1)N/N=C/c1cc([N+](=O)[O-])ccc1O	16	-91*	-6	-24	0.3	.
CCOc1ccc(N2CC(C(=O)NCCN3C(=O)S/C(=C\c4cccnc4)C3=O)CC2=O)cc1 (stereo not given)	5	-1	-3	0	-0.7	-2
O=C(Nc1nc2ccc(F)cc2s1)C1=COCCO1	4	2	-20	16	0.2	-10
O=C(Nc1ccccc1)c1ccc(NC(=O)c2cccs2)cc1	-2	0	-3	-7	0.5	-4
Cc1ccc(C(C(=O)NCc2ccco2)N(C(=O)CNC(=O)c2cccs2)c2ccc(C)cc2C)cc1 (stereo not given)	-12	-2	.	-11	-0.1	10
CCOc1cc(CNn2cnnc2)ccc1OCC(=O)NC1CCCCC1	-13	6	5	-13	0.5	4
C/C(O)=c1/c(=O)nc2cccc3c2=c1c1ccccc1c3=O	-2	?	7	-22	0.0	-17
COC(=O)N1CCN(c2ccc(C(C)=O)cc2)CC1	7	0	0	-4	-0.3	2
CCCc1ccc(C(O)c2ncc(-c3ccc(OC)cc3)[nH]2)cc1 (stereo not given)	-5	-8	.	-17	-0.4	-12
CCOc1ncccc1C(=O)NNC(=O)c1cccc(S(=O)(=O)Nc2ccc(OC)cc2)c1	8	-11	-23	-8	0.4	17

Brought forward from above: five entries, then new ones.
SMILES	TRPML1 inh	Six1-Eya2 blk	TRPV1 potentiator	D2 PAM	TRPML1 agonist	CtBP-E1A blk
CCOc1cc(CNn2cnnc2)ccc1OCC(=O)NC1CCCCC1	-13	6	5	-13	0.5	4
C/C(O)=c1/c(=O)nc2cccc3c2=c1c1ccccc1c3=O	-2	?	7	-22	0.0	-17
COC(=O)N1CCN(c2ccc(C(C)=O)cc2)CC1	7	0	0	-4	-0.3	2
CCCc1ccc(C(O)c2ncc(-c3ccc(OC)cc3)[nH]2)cc1 (stereo not given)	-5	-8	.	-17	-0.4	-12
CCOc1ncccc1C(=O)NNC(=O)c1cccc(S(=O)(=O)Nc2ccc(OC)cc2)c1	8	-11	-23	-8	0.4	17
COc1ccc(NC(=O)COC(=O)CC2Sc3ccccc3NC2=O)cc1 (stereo not given)	-13	-10	21	-6	1.1	-3
COc1ccc(NC(=O)COc2ccc(-c3nn(C)c(=O)c4ccccc34)cc2)cc1	-3&7	1	-4	-11	-0.3&2.5	8
O=C(OCc1cnc(Cl)s1)c1ccc(Cl)cc1	19	39	3	6	0.2	27
Cc1ccc(C)c(N2CCN(C(=O)CCc3nc(-c4ccc(Br)cc4)no3)CC2)c1	18	8	.	.	0.0	-3
CN1C(=O)c2ccc(C(=O)Nc3ccccc3O)cc2C1=O	8	-7	2	-2	-0.4	.
O=C(c1ccco1)N1CCN(C(=O)c2ccccc2OCc2ccccc2)CC1	-1	1	.	-33	-0.6	12
C/C(=N\NC(=O)c1ccc(F)cc1)c1ccccn1	13	-92*	3	8	0.8	.
Cc1c(C(=O)N2CCc3ccccc3C2)oc2ccc(S(=O)(=O)N3CC(C)CC(C)C3)cc12 (stereo not given)	12	-4	16	-4	0.4	-16
Cc1cccc(Oc2nc(-c3ccccn3)nc3ccccc23)c1	2	?	-1	-12	1.8	?
COc1ccc(OC)c(NC(=O)c2ccccc2N(Cc2ccccc2)S(C)(=O)=O)c1	1	-10	-14	0	0.3	-15
CC[C@]12c3[nH]c4ccc(OC)cc4c3CCN1C(=O)C(CC(=O)NCCCN(C)C)C[C@@H]2C(=O)N1CCN(C(=O)c2ccco2)CC1 (stereo not given in full)	-10	5	.	-6	-0.2	-1
CCCCN(CCCC)/C(N)=N/c1nc(C)cc(C)n1	-5	-12	2	-10	-0.4	-20
CCCc1cc(=O)oc2cc(C)cc(OCC(=O)NC3CC3)c12	7	4	4	-22	-0.8	-15
COc1ccccc1NC(=O)c1c(O)c2ccccc2[nH]c1=O	-4	10	-38	-14	0.9	.
COc1ccc(NS(=O)(=O)c2ccc(OCC(=O)N3CCOCC3)cc2)cc1Cl	4	-3	9	14	0.0	1
Cc1ccc(N(CC(=O)N/N=C/c2cc(C)n(-c3ccccc3)c2C)S(C)(=O)=O)c(C)c1	-15	-5	-3	-8	1.7	-5
CCc1ccc(NC(=O)CCn2ccnc2C)cc1	9	0	17	0	-0.9	4
Cc1ccc(F)cc1S(=O)(=O)Nc1cccc(C(=O)N2CCCC(C(N)=O)C2)c1 (stereo not given)	-1	1	11	1	3.2	0
Cn1c(=O)oc2cc(S(=O)(=O)NCc3ccco3)ccc21	6	-1	0	-6	-0.3	1

Screening data (PubChem)
